Assay outcomes deposited in PubChem by Broad Institute.
NOMO-1 viab: STK33 inhibitor candidate reducing NOMO-1 cell viability; NOMO-1 AML viability, CellTiter-Glo luminescence, 72 h; inhibition, % (test concentration not listed); 7.5% of 37,000 active; AID 2330;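 active means most replicates above 80%; inconclusive means exactly half above 80%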;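 further: wells of about 30 µL received 25 nL stock; 0% = median of vehicle wells and 100% = reference inhibitor level; the first replicate is given; inactives centre near 10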
* marks the source's active call; other numbers are inactive results; u = inconclusive. An excerpt; count on the stated rates, not on these rows.

Compound,NOMO-1 viab
CN(CC(=O)Nc1cccnc1)S(=O)(=O)c1ccc(Br)cc1,-27.9
C[C@@H]1CN([C@H](C)CO)C(=O)c2cc(NS(=O)(=O)c3cn(C)cn3)ccc2O[C@H]1CN(C)CC1CCCCC1,0.6
COc1cc(CC2COC(=O)C2(O)Cc2ccc(O)c(OC)c2)ccc1O (configuration not stated),54.3
C[C@@H]1CN([C@H](C)CO)C(=O)c2cc(NC(=O)Nc3ccc(F)cc3)ccc2O[C@H]1CN(C)Cc1ccc(C(=O)O)cc1,14.2
COc1ccc(NC(=O)CSc2nnc(-c3ccc(Cl)cc3)n2C)cc1,-7.5
C[C@H]1CN([C@@H](C)CO)C(=O)c2cc(NC(=O)CCC(F)(F)F)ccc2O[C@@H]1CN(C)Cc1ccncc1,17.1
Cc1ccccc1-n1c(SCC(N)=O)nc2ccccc2c1=O,5.5
C[C@@H]1CCCCO[C@@H](CN(C)S(=O)(=O)c2cccs2)[C@@H](C)CN([C@H](C)CO)C(=O)c2cc(N(C)C)ccc2O1,17.2
Cn1c(SCC(=O)c2ccc(Cl)cc2)nnc1-c1ccncc1,-9.6
CCOc1ccccc1NC(=O)C(C)Oc1ccc(OC)cc1 (configuration not stated),105.1*
O=C(CSc1nnc(-c2cccnc2)o1)c1ccc2c(c1)OCCO2,7.2
O=C(COc1ccc(S(=O)(=O)N2CCCCC2)cc1)Nc1ccc2c(c1)OCCO2,-5.1
Cc1noc(C)c1NC(=O)Nc1cccc2c1O[C@@H](CN(C)C(=O)Nc1ccc(F)cc1)[C@@H](C)CN([C@@H](C)CO)C2=O,3.6
C[C@@H]1CN([C@@H](C)CO)C(=O)c2cccc(NC(=O)c3ccncc3)c2O[C@H]1CN(C)Cc1ccncc1,9.5
COc1ccc(NC(=O)N(C)C[C@@H]2Oc3c(NC(=O)c4cc(C)nn4C)cccc3C(=O)N([C@@H](C)CO)C[C@@H]2C)cc1,0.6
Cc1cc(C(=O)Nc2cccc3c2O[C@@H](CN(C)C(=O)NC2CCCCC2)[C@H](C)CN([C@H](C)CO)C3=O)n(C)n1,-10.3
Cn1c2ccccc2c2nnc(SCC(=O)c3ccc(Cl)cc3)nc21,1.7
Cc1ccc(S(=O)(=O)Nc2ccc3c(c2)CC(=O)N([C@H](C)CO)C[C@@H](C)[C@H](CN(C)Cc2ccc(Cl)c(Cl)c2)O3)cc1,59.3
Cc1noc(C)c1S(=O)(=O)N(C)C[C@H]1OCCCC[C@@H](C)Oc2ccc(NS(C)(=O)=O)cc2C(=O)N([C@H](C)CO)C[C@@H]1C,2.0
CN(CC(=O)Nc1ccccc1C#N)S(=O)(=O)c1ccccc1,0.5
Cc1noc(C)c1S(=O)(=O)Nc1ccc2c(c1)C(=O)N([C@@H](C)CO)C[C@H](C)[C@H](CN(C)Cc1ccccc1)O2,-6.6
O=C(Nc1ccc(Cl)cc1C(=O)NCc1ccco1)c1ccco1,31.2
CNC(=O)c1c(N)sc2c1CCCCC2,126.3*
C[C@@H]1CN([C@H](C)CO)C(=O)c2cc(NC(=O)Nc3ccc(C(F)(F)F)cc3)ccc2O[C@H]1CN(C)S(=O)(=O)c1cn(C)cn1,25.5
Cc1ccc(S(=O)(=O)Nc2cccc3c2O[C@H](CN(C)S(=O)(=O)c2cccs2)[C@@H](C)CN([C@H](C)CO)C3=O)cc1,16.7
O=S(=O)(c1cccc2cccnc12)N(CCO)CCO,-13.4
C[C@H](CO)N1C[C@H](C)[C@H](CN(C)S(=O)(=O)c2cn(C)cn2)Oc2ccc(NC(=O)Nc3ccc(C(F)(F)F)cc3)cc2CC1=O,124.9*
C[C@H]1CN([C@@H](C)CO)C(=O)Cc2cc(NS(=O)(=O)c3ccc(F)cc3)ccc2O[C@@H]1CN(C)C(=O)Nc1ccccc1,16.8
O=C(CSc1nnc(-c2ccccn2)n1-c1ccccc1)Nc1cc(C(F)(F)F)ccc1Cl,28.1
COC(=O)c1c(NC(=O)CN2C(=O)c3ccccc3C2=O)sc2c1CCC(C(C)(C)C)C2 (configuration not stated),-23.0
CC(=O)NC(NCc1ccccc1)(C(F)(F)F)C(F)(F)F,-25.9
Cc1noc(C)c1NC(=O)N(C)C[C@H]1Oc2c(NS(=O)(=O)c3ccccc3)cccc2C(=O)N([C@@H](C)CO)C[C@@H]1C,-2.0
CCOC(=O)c1c(NC(=O)CSc2nc(C)cc(C)n2)sc2c1CCCC2,15.5
O=C(CSc1n[nH]c(-c2ccncc2)n1)c1cccc([N+](=O)[O-])c1,-14.2
Clc1ccc(C2=NN=C(N3CCCC3)SC2)cc1,99.1*
CNC[C@H]1Oc2ccc(NC(=O)CCC(F)(F)F)cc2C(=O)N([C@@H](C)CO)C[C@H]1C,11.5
C[C@H]1CN([C@@H](C)CO)C(=O)Cc2cc(NC(=O)Cc3cn(C)c4ccccc34)ccc2O[C@H]1CN(C)S(=O)(=O)c1ccccc1,16.2
COc1ccc(OC)c(NC(=O)C2=C(C)NC(=O)NC2c2ccc(OC)cc2OC)c1 (configuration not stated),-21.2
COc1ccc(-c2noc(CN(C(=O)c3ccc(C)c([N+](=O)[O-])c3)C(C)C)n2)cc1,4.8
Cc1ccc(-c2nc(SCC(=O)c3ccccc3)n[nH]2)cc1,15.1
O=C(Cn1cnc2scc(-c3ccccc3)c2c1=O)Nc1ccc(F)cc1,-9.6
C[C@@H]1CN([C@H](C)CO)C(=O)Cc2cc(NS(=O)(=O)c3ccc(F)cc3)ccc2O[C@H]1CN(C)Cc1ccc(Oc2ccccc2)cc1,126.5*
C[C@H](CO)N1C[C@H](C)[C@H](CN(C)Cc2ccccc2)Oc2ccc(NS(=O)(=O)c3cn(C)cn3)cc2C1=O,-10.2
Cn1c(=O)c2c(nc(NCCO)n2C)n(C)c1=O,-14.2
C[C@@H]1CN([C@@H](C)CO)C(=O)c2cccc(NS(=O)(=O)c3cn(C)cn3)c2O[C@@H]1CN(C)C(=O)Nc1ccc2c(c1)OCO2,-3.2
C[C@H](CO)N1C[C@H](C)[C@@H](CN(C)Cc2ccc(Cl)c(Cl)c2)Oc2ccc(NS(=O)(=O)c3ccc(F)cc3)cc2C1=O,35.1
C[C@@H]1CN([C@@H](C)CO)C(=O)Cc2cc(NC(=O)Nc3cccc4ccccc34)ccc2O[C@@H]1CN(C)S(=O)(=O)c1ccc(Cl)cc1,48.3
CC(C)N(Cc1nc(-c2ccccc2)no1)S(=O)(=O)c1ccccc1[N+](=O)[O-],64.6
O=C1/C(=C/c2c[nH]c3ccccc23)CSc2ccccc21,113.2*
C[C@@H]1CN([C@@H](C)CO)C(=O)Cc2cc(NC(=O)Nc3ccc(C(F)(F)F)cc3)ccc2O[C@@H]1CN(C)C(=O)Nc1cccc2ccccc12,82.5*
CC(=O)N[C@H]1[C@H](O[C@H]2CC[C@@]3(C)C(CC[C@]4(C)C3CC=C3[C@@H]5CC(C)(C)CC[C@]5(C(=O)O)CC[C@]34C)C2(C)C)O[C@H](CO[C@@H]2OC[C@H](O)[C@H](O)[C@H]2O[C@@H]2OC[C@H](O)[C@H](O)[C@H]2O)[C@@H](O)[C@@H]1O (some centres not stated),120.3*
CC(NS(=O)(=O)c1cc(Cl)ccc1Cl)C(=O)Nc1ccccc1 (configuration not stated),2.8
COc1ccc(S(=O)(=O)Nc2ccc3c(c2)C(=O)N([C@H](C)CO)C[C@@H](C)[C@H](CN(C)S(=O)(=O)c2ccc(OC)cc2)O3)cc1,10.3
C[C@@H]1CN([C@@H](C)CO)C(=O)c2cc(NC(=O)c3ccncc3)ccc2O[C@@H]1CN(C)Cc1ccc(C(F)(F)F)cc1,31.6
C[C@H](CO)N1C[C@H](C)[C@@H](CN(C)S(=O)(=O)c2ccc(Cl)cc2)Oc2ccc(NS(=O)(=O)c3ccc(F)cc3)cc2C1=O,18.0
CN(C)CCCNc1ncnc2c1sc1nc(N3CCOCC3)c3c(c12)CCC3,97.8*
Cc1cc(C(=O)Nc2cccc3c2O[C@H](CN(C)S(=O)(=O)c2cccs2)[C@H](C)CN([C@H](C)CO)C3=O)n(C)n1,-2.1
COc1ccc(NC(=O)Nc2cccc3c2O[C@H](CN(C)S(C)(=O)=O)[C@@H](C)CN([C@@H](C)CO)C3=O)cc1,21.5
Cc1cccc(C)c1NC(=O)CSc1nc(O)cc(=O)[nH]1,-6.5
C[C@H](CO)N1C[C@H](C)[C@H](CN(C)S(=O)(=O)c2ccc(Cl)cc2)Oc2ccc(NC(=O)C3CCCCC3)cc2CC1=O,38.4

Shown with each value named: entries from further up
> C[C@@H]1CN([C@H](C)CO)C(=O)Cc2cc(NS(=O)(=O)c3ccc(F)cc3)ccc2O[C@H]1CN(C)Cc1ccc(Oc2ccccc2)cc1
  NOMO-1 viab: 126.5*
> C[C@H](CO)N1C[C@H](C)[C@H](CN(C)Cc2ccccc2)Oc2ccc(NS(=O)(=O)c3cn(C)cn3)cc2C1=O
  NOMO-1 viab: -10.2
> Cn1c(=O)c2c(nc(NCCO)n2C)n(C)c1=O
  NOMO-1 viab: -14.2
> C[C@@H]1CN([C@@H](C)CO)C(=O)c2cccc(NS(=O)(=O)c3cn(C)cn3)c2O[C@@H]1CN(C)C(=O)Nc1ccc2c(c1)OCO2
  NOMO-1 viab: -3.2

Continuation.
Compound,NOMO-1 viab
C[C@@H]1CN([C@@H](C)CO)C(=O)c2cc(NC(=O)Cc3cn(C)c4ccccc34)ccc2O[C@@H]1CN(C)Cc1ccc(Oc2ccccc2)cc1,113.8*
Cc1cc(C(=O)Nc2cccc3c2O[C@H](CN(C)C(=O)Nc2ccccc2)[C@@H](C)CN([C@H](C)CO)C3=O)n(C)n1,5.7
C[C@@H]1CN([C@H](C)CO)C(=O)Cc2cc(NC(=O)NC3CCCCC3)ccc2O[C@@H]1CN(C)C,12.7
N#Cc1ccccc1CSc1nnc(Cc2cccc3ccccc23)n1-c1ccccc1,11.0
Cc1noc(C)c1NC(=O)N(C)C[C@@H]1Oc2c(NS(=O)(=O)c3c(C)noc3C)cccc2C(=O)N([C@@H](C)CO)C[C@@H]1C,-2.8
C[C@H](CO)N1C[C@H](C)[C@@H](CN(C)S(=O)(=O)c2ccc(F)cc2)Oc2c(NS(C)(=O)=O)cccc2C1=O,14.0
C[C@@H]1CN([C@H](C)CO)C(=O)c2cccc(NS(=O)(=O)c3ccccc3)c2O[C@@H]1CN(C)C(=O)NC1CCCCC1,16.7
C[C@H]1CN([C@@H](C)CO)C(=O)Cc2cc(NS(=O)(=O)c3cccs3)ccc2O[C@H]1CN(C)S(C)(=O)=O,-5.3
O=C(CN1C(=O)c2ccccc2C1=O)Nc1ccc2c(c1)C(=O)NC2=O,3.8
C[C@@H]1CN([C@@H](C)CO)C(=O)c2cccc(NC(=O)C3CCOCC3)c2O[C@@H]1CN(C)C(=O)Nc1cccc2ccccc12,18.6
COc1ccc(S(=O)(=O)Nc2ccc3c(c2)CC(=O)N([C@@H](C)CO)C[C@H](C)[C@H](CN(C)C(=O)Nc2ccc4c(c2)OCO4)O3)cc1,-0.2
CC(C)NC(=O)N(C)C[C@H]1Oc2ccc(NS(=O)(=O)c3ccc(F)cc3)cc2CC(=O)N([C@@H](C)CO)C[C@H]1C,18.7
C[C@H](CO)N1C[C@H](C)[C@H](CN(C)Cc2ccc3c(c2)OCO3)Oc2c(NC(=O)c3ccc(-c4nccs4)cc3)cccc2C1=O,44.8
O=C(O)c1cc(=O)c2c(O)cccc2o1,5.0
C[C@H](CO)N1C[C@H](C)[C@@H](CN(C)C(=O)Nc2ccc(C(F)(F)F)cc2)Oc2c(NC(=O)Nc3ccccc3)cccc2C1=O,12.6
C[C@@H]1CCCCO[C@@H](CN(C)C(=O)Nc2ccccc2)[C@@H](C)CN([C@H](C)CO)C(=O)c2cc(NC(=O)C3CCCCC3)ccc2O1,7.8
O=C(O)CCC(=O)N1N=C(c2c(-c3ccccc3)c3cc(Cl)ccc3[nH]c2=O)CC1c1ccccn1 (configuration not stated),-3.8
C[C@@H]1CCCCO[C@H](CN(C)C(=O)CCC(F)(F)F)[C@@H](C)CN([C@H](C)CO)C(=O)c2cc(NC(=O)CCC(F)(F)F)ccc2O1,8.8
Cc1nnc(SCC(=O)Nc2ccc(C#N)cc2)s1,3.3
Cc1c(C)c(C)c2[nH]c(SCc3nc(-c4ccc(Cl)cc4)no3)nc2c1C,33.6
C[C@H]1CN([C@@H](C)CO)C(=O)Cc2cc(N(C)C)ccc2O[C@@H]1CN(C)S(=O)(=O)c1cccs1,-3.1
COc1ccc(CN(C)C[C@@H]2Oc3ccc(NC(=O)Cc4cn(C)c5ccccc45)cc3C(=O)N([C@@H](C)CO)C[C@@H]2C)cc1,11.2
CCOC(=O)c1ccc(NC(=O)CSc2nc3cc4ccccc4cc3[nH]2)cc1,111.1*
C[C@@H]1CN([C@@H](C)CO)C(=O)Cc2cc(NC(=O)c3ccncc3)ccc2O[C@@H]1CN(C)Cc1ccc(Cl)c(Cl)c1,u
CCCc1cc(=O)[nH]c(Nc2nc(C)c3ccc(OC)cc3n2)n1,20.6
Cc1ccc(CN(CC(N)=O)S(=O)(=O)c2ccc(Cl)cc2)cc1,15.9
C[C@H](CO)N1C[C@H](C)[C@H](CN(C)CC2CC2)Oc2ccc(NS(=O)(=O)c3ccc(Cl)cc3)cc2CC1=O,35.2
Cc1sc(NC(=O)c2cc(-c3ccccc3)nc3ccccc23)c(C(=O)NCc2cccnc2)c1C,45.6
COc1ccc(CN(C)C[C@@H]2Oc3ccc(NC(=O)C4CC4)cc3C(=O)N([C@@H](C)CO)C[C@@H]2C)cc1,5.5
Cc1noc(C)c1NC(=O)Nc1cccc2c1O[C@H](CN(C)Cc1ccccc1)[C@H](C)CN([C@H](C)CO)C2=O,-10.1
